Screening results from PubChem.
VDR inhibitor: blocks the human vitamin D receptor; hit rate 0.93% among 400,000; Potency, µM, for inactives: max response, negative = inhibition, usual class: inhibitors; VDR-SRC2-3 peptide fluorescence polarization, 2 h; AID 504847; P11473; active means well fitted inhibition curve with a large enough effect; inconclusive means small, poorly fitted or top-dose-only effect, or another doubt; inactive means no such curve, though single readings can be large or run the other way; further: series mostly up to about 120 µM
Target sequence (P11473 whole entry, looked up): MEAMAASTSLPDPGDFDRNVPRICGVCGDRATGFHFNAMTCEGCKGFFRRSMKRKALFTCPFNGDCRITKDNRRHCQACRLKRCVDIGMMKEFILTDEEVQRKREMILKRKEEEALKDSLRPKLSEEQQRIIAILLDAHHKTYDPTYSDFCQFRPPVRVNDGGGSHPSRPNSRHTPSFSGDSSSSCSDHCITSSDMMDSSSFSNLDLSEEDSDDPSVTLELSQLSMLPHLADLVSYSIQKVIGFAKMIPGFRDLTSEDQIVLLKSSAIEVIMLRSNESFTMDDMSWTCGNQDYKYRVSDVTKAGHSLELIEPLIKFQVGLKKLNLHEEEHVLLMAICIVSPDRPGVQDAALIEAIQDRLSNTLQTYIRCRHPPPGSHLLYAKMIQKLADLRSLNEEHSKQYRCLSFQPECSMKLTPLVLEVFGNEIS
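Two reagent solutions held at 4 deg C in the dark were dispensed, compounds pinned at 23 nl, and the mixture incubated 2 h at room temperature. Read-out: fluorescence polarization of VDR–SRC2-3 peptide binding.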
Active calls of the source: *; ? = inconclusive; & = joins results of further samples. On the % scale 0 is the no-effect control and ±100 the full control effect; potency means the concentration at half of the fitted maximal effect.

compound,VDR inhibitor
O=C1c2ccccc2C(Nc2ccc3c(c2)OCO3)N1Cc1ccc2c(c1)OCO2 (centres undefined),4.7%
NC(=S)Nc1cccc2[nH]ccc12,-20.1%
O=C(CC1(O)C(=O)Nc2ccccc21)c1ccc(-n2cnnn2)cc1 (centres undefined),-4.0%
COc1cc(CCC(=O)OCC(=O)Nc2ccc(F)cc2F)cc(OC)c1OC,-16.2%
CCC(C)(C)NC(=O)CN(Cc1ccc2c(c1)OCO2)C(=O)CCC(=O)Nc1ccccn1,14.6%
CC(=O)Nc1ccc(S(=O)(=O)N2CCCC3CCCCC32)cc1 (centres undefined),-18.9%
CCC(=O)OCOc1ccc(/C=C2/CCC(CN(C)C)C2=O)cc1 (centres undefined),10µM*
COCCNCC(=O)Nc1ccccc1Sc1ccccc1,-7.8%
Cc1cc(C)cc(NC(=S)/C(=C(\[O-])c2ccc(Cl)cc2Cl)[n+]2ccc(C(C)(C)C)cc2)c1,-27.1%
COc1cc(OC)c(C2=NOC(C(=O)Nc3cc(C)nn3-c3ccccc3)C2)cc1Cl (centres undefined),-11.4%
COCCNC(=O)c1ccc(C(=O)NCCOC)s1,-9.4%
CC(=O)C1C(=O)c2c(cccc2[N+](=O)[O-])C1=Nc1ccc(S(N)(=O)=O)cc1 (centres undefined),-11.6%
COc1ccc(CCNC(=S)NC(=O)c2ccccc2)cc1OC,-16.5%
Cc1cc(Oc2ncccc2[N+](=O)[O-])c2cc(Cl)ccc2n1,-17.5%
CCOC(=O)c1c(C)[nH]c(C)c1S(=O)(=O)N(C)CC(=O)Nc1ccc(C)c(F)c1,2.1%
Cc1ccc(SCC(=O)NNC(=O)c2cncc(Br)c2)cc1,-2.3%
CC(=O)N1CCN(S(=O)(=O)c2cccc(C(=O)Nc3ccc(OC(F)F)cc3)c2)CC1,-15.7%
Cc1ccc(C(C2C(=O)CC(C)(C)CC2=O)C2C(=O)CC(C)(C)CC2=O)s1,39.8µM*
CC(Cc1ccccc1)NC(=O)CN1C(=O)c2ccccc2S1(=O)=O (centres undefined),9.5%
CCc1noc(C)c1C(=O)NNC(=O)c1ccc(N(CC)CC)cc1,0.3%
Cc1ccc(C)c(Cn2c3ccccc3c3cnn(CC(=O)NC(C)CCc4ccccc4)c(=O)c32)c1 (centres undefined),14.3%
CCN(CC)c1ccc(/C=N/N2C(C)CCCC2C)c(O)c1 (centres undefined),2.4%
CC(O)[C@H]1CNCCN1CCc1cc(C(F)(F)F)cc(C(F)(F)F)c1 (some centres undefined),-7.8%
COc1ccc(NC(=O)c2cc(-c3ccccc3O)no2)cc1,12.0%

For reference, some entries already given.
compound,VDR inhibitor
CC(=O)N1CCN(S(=O)(=O)c2cccc(C(=O)Nc3ccc(OC(F)F)cc3)c2)CC1,-15.7%
Cc1ccc(C(C2C(=O)CC(C)(C)CC2=O)C2C(=O)CC(C)(C)CC2=O)s1,39.8µM*
CC(Cc1ccccc1)NC(=O)CN1C(=O)c2ccccc2S1(=O)=O (centres undefined),9.5%
CCc1noc(C)c1C(=O)NNC(=O)c1ccc(N(CC)CC)cc1,0.3%
Cc1ccc(C)c(Cn2c3ccccc3c3cnn(CC(=O)NC(C)CCc4ccccc4)c(=O)c32)c1 (centres undefined),14.3%
CCN(CC)c1ccc(/C=N/N2C(C)CCCC2C)c(O)c1 (centres undefined),2.4%

(further entries)
compound,VDR inhibitor
O=C(Cc1cccs1)N1CCCC(c2nc3c(nnn3Cc3cccc(Cl)c3)c(=O)[nH]2)C1 (centres undefined),24.6%
CCOc1ccc(S(=O)(=O)NN=C(C)c2cccnc2)cc1,7.1%
CC(C)c1nnc(NC(=O)c2nc(SCc3ccc(F)cc3)ncc2Cl)s1,0.5%
O=C(Nc1nc2c(F)cccc2s1)c1ccc2c(c1)OCCO2,1.3%
Cn1c(SCc2ccccc2F)nnc1-c1ccccn1,-13.8%
CSCCC(NC(=O)c1ccccc1)C(=O)O (centres undefined),14.8%
CCc1ccccc1NC(=O)Cn1c(=O)n(CCc2ccccc2)c(=O)c2sc3ccccc3c21,-14.1%
Cc1ccc2nc(SCC(=O)Nc3oc(C)c4c(C)n[nH]c(=O)c34)[nH]c2c1,-8.6%
C/C(=N\N1C(=O)c2ccccc2NC1c1ccco1)c1ccccc1O (centres undefined),5.3%
CCOC(=O)Cn1c(=O)oc2cc(S(=O)(=O)NC(C)(C)CC)ccc21,-0.2%
CCOc1ccccc1CNC(=O)Cn1cc2c(n1)-c1c(oc(C(=O)N3CCCC3)c1C)CC2,-1.5%
CC(C)c1ccc(NC(=O)COC(=O)[C@H](CCC(N)=O)NC(=O)c2ccc(F)cc2)cc1,-1.0%
O=C1C(Cl)=C(NCC2CCCO2)C(=O)N1Cc1ccccc1 (centres undefined),-3.9%
COc1ccccc1-n1c(SCC(=O)Nc2cccc(C)c2)nc2c(c1=O)SCC2,-12.2%
CC1=CC(=C(C#N)C#N)C=C(C)N1CCN1CCN(C(=O)Nc2cccc(Cl)c2)CC1,-2.7%
CCc1ccc(NC(=O)C(=O)NCCN2CCN(S(C)(=O)=O)CC2)cc1,-14.8%
CCn1c(SCC(=O)N/N=C/c2cccs2)nc2ccccc21,1.9%
Clc1cccc(CSc2nnc(C3CCNCC3)o2)c1,-0.2%
Cc1ccc(S(=O)(=O)N2CCC(C(=O)N3CCCC(C(F)(F)F)C3)CC2)cc1C (centres undefined),1.0%
Cc1ccccc1C(=O)NC(=S)N(C)C1CCCCC1,2.5%
Cc1ccc(C(=O)CCC(=O)N2CCC(C(N)=O)CC2)cc1,-6.0%
Cc1nc(-c2ccc(F)cc2)c(CC(=O)N(C)CC(=O)Nc2c(C)cccc2C)s1,4.1%
NC(=S)c1cnn2c(-c3cccc(C(F)(F)F)c3)ccnc12,-1.7%
Cc1cc(NC(=O)CCC(=O)N(Cc2ccc(F)cc2)C(C(=O)NC2CCCC2)c2ccco2)no1 (centres undefined),-8.9%
OC/C=C/c1ccc(O)c(O)c1,-2.7%
CCN(CC)c1nc2ccccc2nc1-n1nc(C)cc1C,17.4%
COc1ccccc1C(=O)NCc1ccccc1,17.5%
Cc1ccccc1CN1CCN(C(C)C(=O)NNC(=O)c2ccc(F)cc2)CC1 (centres undefined),-19.3%
Cc1cc(CSc2ccccc2)ccc1NC(=O)c1cccc([N+](=O)[O-])c1,-10.8%
Cc1ccccc1OCc1nnc(SCC(=O)Nc2c(C)n(C)n(-c3ccccc3)c2=O)n1-c1ccccc1,-9.6%
CCC1CN(C(=O)N2CCC(C(=O)NCCc3ccc(C)cc3)CC2)c2ccccc2O1 (centres undefined),3.2%
Cc1c(C(=O)NC2CCCc3ccccc32)oc2ccccc12 (centres undefined),8.7%
O=C(Nc1ccc(Oc2ccccc2)cc1)c1ccc(F)c(S(=O)(=O)N2CCN(c3cccc(Cl)c3)CC2)c1,-3.4%
COc1ccc2[nH]c(C(=O)N/N=C/c3ccc(O)cc3O)cc2c1,3.8%
Cc1ccc(NC(=O)CN2C(=O)C(c3ccc(F)cc3)=NC23CCCCCC3)c(C)c1,12.9%
Cc1cc(C)c2oc(-c3ccc(NC(=O)COc4ccccc4C)cc3)nc2c1,-13.9%
C=CCc1ccc(OCC(O)CN2CCC(Cc3ccccc3)CC2)c(OC)c1 (centres undefined),-6.9%
Cc1cccc(OCC(=O)OCc2cc(=O)n3nc(C4CCCCC4)sc3n2)c1,-1.6%
Nc1nc(-c2ccc(-n3nncc3-c3ccco3)cc2)cs1,-17.9%
CC(C)C(=O)Nc1ccc(Cl)cc1-c1nc2ccccc2[nH]c1=O,19.9%

Sorted by heavy-atom count (largest number first): 3 of the compounds above
compound,VDR inhibitor
O=C(Nc1ccc(Oc2ccccc2)cc1)c1ccc(F)c(S(=O)(=O)N2CCN(c3cccc(Cl)c3)CC2)c1,-3.4%
C=CCc1ccc(OCC(O)CN2CCC(Cc3ccccc3)CC2)c(OC)c1 (centres undefined),-6.9%
CC(C)C(=O)Nc1ccc(Cl)cc1-c1nc2ccccc2[nH]c1=O,19.9%

Following part:
| Compound | VDR inhibitor |
| --- | --- |
| CC(C)(C)NC(=O)C(c1ccco1)N(C(=O)Cn1nnc(-c2ccc(F)cc2)n1)c1ccccc1 (centres undefined) | 1.7% |
| NC12CCc3c(no[n+]3[O-])C1(O)CC(c1ccccc1)=[N+]2[O-] (centres undefined) | -4.2% |
| CC(C)CC(NC(=O)C(COC(C)(C)C)NC(=O)C(Cc1ccc(O)cc1)NC(=O)C(CO)NC(=O)C(Cc1c[nH]c2ccccc12)NC(=O)C(Cc1cnc[nH]1)NC(=O)C1CCC(=O)N1)C(=O)NC(CCCN=C(N)N)C(=O)N1CCCC1C(=O)NNC(N)=O (centres undefined) | -1.1%&-5.0% |
| COc1ccc(-c2ccc(C)cc2)cc1[C@H]1[C@@H]2C=CCC[C@@]2(C)C(=O)N1Cc1ccccc1 | -12.7% |
| O=C(NCCc1ccccc1)c1cc(-c2cccc(Cl)c2)on1 | -19.7% |
| Cc1ccc(Cn2nnc3c(=O)[nH]c(C4CCN(S(=O)(=O)c5cc(C)ccc5C)CC4)nc32)cc1 | 16.2% |
| Cc1cccc(CNC(=O)C2CCC(CNS(=O)(=O)c3ccc4c(c3)CCCC(=O)N4)CC2)c1 (centres undefined) | 11.1% |
| CCN(CC)c1ccc(NC(=O)C2=CCN(S(=O)(=O)c3ccc(F)cc3)CC2)c(C)c1 | -18.0% |
| Nc1nonc1-c1nc2ccccc2n1Cc1ccccc1 | 0.6% |
| O=Cc1cn(-c2ccccc2)nc1-c1ccncc1 | -14.8% |
| Cc1ccc(NC(=O)C2CCN(S(=O)(=O)c3ccc4[nH]c(=O)oc4c3)CC2)cc1F | 2.4% |
| O=C(CCNS(=O)(=O)c1cccs1)NC1CCN(Cc2ccccc2)CC1 | -2.1% |
| Fc1ccccc1-c1nc2c(s1)CCc1onc(-c3ccc(Br)cc3)c1-2 | -17.9% |
| CN1CCN(CC#CCC2(O)c3ccccc3-c3ccccc32)CC1 | -3.1% |
| Cc1ccc(Cl)cc1N1CCN(C(=O)C2CCN(S(=O)(=O)c3cnc[nH]3)CC2)CC1 | 12.3% |
| COc1ccc(N(CC(=O)N2CCN(Cc3ccccc3)CC2)S(C)(=O)=O)cc1 | 7.1% |
| CCOc1ccccc1CNCc1ccc(F)cc1 | -4.4% |
| CCOC(=O)N/N=C/c1ccc(OC)c(O)c1 | -22.4% |
| Cc1onc(-c2c(Cl)cccc2Cl)c1CO/N=C(\C#N)c1c(Cl)cccc1Cl | 18.7% |
| COc1ccc(C(=O)NC2CCCCCC2)cc1S(=O)(=O)N1CCCC1 | 3.9% |
| CCOC(=O)C1=C(COC(=O)/C=C/c2cc(Br)ccc2F)NC(=O)NC1C (centres undefined) | ? |
| O=C(O)/C=C/C(=O)NC1CCC(CC2CCC(NC(=O)/C=C/C(=O)O)CC2)CC1 (centres undefined) | 22.3% |
| Cc1cc(S(=O)(=O)Nc2ccc(C(=O)NCc3cccnc3)cc2)ccc1F | -22.0% |
| Cc1ccc(C)c(NC(=O)CN2C(=O)COc3ccc(Cl)cc32)c1 | 0.7% |
| CCC1(c2ccc(F)cc2)NC(=O)N(CC(=O)c2ccc[nH]2)C1=O (centres undefined) | -2.2% |
| C/C=C\C(=O)Nc1cccc(C2=NOC3(C2)C[C@@H](C(N)=O)N(C(=O)c2ccc(Cl)cc2)C3)c1 (some centres undefined) | -2.1% |
| COc1ccc(CCNC(=O)CSc2nc(-c3ccco3)cc(C(F)(F)F)n2)cc1OC | 9.7% |
| COc1ccc(OC)c2[nH]c(=O)c(CCNS(=O)(=O)c3ccc(C)cc3)cc12 | -5.8% |
| O=C(c1ccccc1)c1ccc(OCC(O)CN2CCOCC2)cc1 (centres undefined) | -2.7% |
| CCOC(=O)c1cnn(Cc2cccc(Cl)c2)c1C | -9.8% |
| CCOC(=O)c1cnc(NCc2ccccc2)nc1C | -15.2% |
| Cc1noc2ncnc(Oc3ccc(Cl)cc3Cl)c12 | -14.0% |
| CN(C)Cc1c(C(=O)N/N=C/c2ccccc2OCc2ccc(F)cc2)nnn1-c1nonc1N | -17.9% |
| Cc1cc(C)c(C)c(S(=O)(=O)NNC(=O)c2cccc(S(=O)(=O)N3CCOCC3)c2)c1C | -3.3% |
| CCOC(=O)N1CCC(N2Cc3cccc(C(=O)N4CCN(c5cccc(C)c5C)CC4)c3C2=O)CC1 | 15.3% |
| COCCn1c(SC2CCOC2=O)nc2ccccc2c1=O (centres undefined) | 5.4% |
| Cn1c(-c2sc3cc(C(F)(F)F)cnc3c2-c2cccnc2)n[nH]c1=S | -12.8% |
| COc1cc(Br)c(C(=O)c2nccc3cc(OC)c(OC)cc23)cc1OC | -18.3% |
| CCCCC(c1nnnn1CS(=O)(=O)c1ccc(C)cc1)N1CCC(C(N)=O)CC1 (centres undefined) | -15.1% |
| Cc1cc(OCC(=O)Nc2ccccc2C(N)=O)c2c(C)cc(=O)oc2c1 | -0.3% |
| C[C@]12CC(O)C3C(CCC4=CC(=O)CC[C@@]43C)C1CCC2c1csc(-c2ccccc2)n1 (some centres undefined) | 3.3% |
| CC1=C(C(=O)Nc2ccccc2C)C(c2ccccn2)n2ncnc2N1 (centres undefined) | -8.0% |
| C/C(CC(=O)Nc1ccc(Cl)c(C(F)(F)F)c1)=N\NC(=O)c1cccc(O)c1 | -12.1% |
| CCCCn1c(N)c(N(CC(C)C)C(=O)CSc2n[nH]c(-c3ccc(C)cc3)n2)c(=O)[nH]c1=O | 1.6% |
| Cc1ccc(OCC(=O)Nc2c(C)nn(-c3ccccc3)c2C)c(Br)c1 | -5.5% |
| COc1ccc(/C(C)=N/Nc2ncc(Cl)cc2Cl)c(O)c1 | 16.1% |
| c1ccc(N2CCN(c3ccccc3)C2c2cccs2)cc1 | 0.9% |
| Cc1cccc(NC(=O)CC2S/C(=N/c3nccs3)N(C)C2=O)c1 (centres undefined) | -11.2% |
| CCN(CC)c1ncn(Cc2c(Cl)cccc2Cl)c2ncnc1-2 | -3.7% |
| CCN(C(=O)Nc1ccccc1OC)c1c(N)n(Cc2ccccc2)c(=O)[nH]c1=O | 7.0% |
| CCCNC(=O)C1CCN(S(=O)(=O)c2ccc(Br)cc2)CC1 | -4.8% |

The list is partial, so the mix of outcomes need not match the whole.
